gsp antag = qHTS for Antagonists of gsp, the Etiologic Mutation Responsible for Fibrous Dysplasia/McCune-Albright Syndrome: qHTS | Potency, µM (series often up to 76.9 µM), inactives show at the highest dose activity change, negative = inhibition, most hits filed as inhibitors | gsp-mutant cells, cAMP HTRF, 30 min; control for the full effect not named in the record | actives 0.4% (n = 340,000); active = falling curve of any shape with a large fitted effect; inconclusive = falling curve, mostly with a smaller effect; inactive = flat or rising curve; cell line not stated here;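 also: intracellular cAMP measured with PDE inhibitor Ro 20-1724 present during compound exposure; potency is read from the fitted curve at half-maximal effect; % is scaled to controls: 0 for no effect and ±100 for the full control effect; nearly all actives have a fitted effect of over 65% in size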
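HTRF cAMP measurement after 30 min RT detection following 30 min, 37C compound treatment alongside […] (added as 300 uM solution) in G418-selected cells seeded at 2000/well and grown 16–24 h.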
TRPV1 PAM = HTS Assay for Compounds that Act as Potentiators of the Vanilloid Receptor 1. Transient receptor potential cation channel subfamily V member 1 (Homo sapiens), Q8NER1. TRPV1-expressing cells, Fluo-8 calcium influx, capsaicin EC20 potentiation; host cell line not named in the record; control for the full effect not named in the record. potentiation, % at 8.33 µM. actives 0.02% (n = 320,000); active means potentiation above 80%; inconclusive means 30% to 80%; inactive means below 30%; also: 0% is about no effect
Target sequence (Q8NER1 whole entry, looked up): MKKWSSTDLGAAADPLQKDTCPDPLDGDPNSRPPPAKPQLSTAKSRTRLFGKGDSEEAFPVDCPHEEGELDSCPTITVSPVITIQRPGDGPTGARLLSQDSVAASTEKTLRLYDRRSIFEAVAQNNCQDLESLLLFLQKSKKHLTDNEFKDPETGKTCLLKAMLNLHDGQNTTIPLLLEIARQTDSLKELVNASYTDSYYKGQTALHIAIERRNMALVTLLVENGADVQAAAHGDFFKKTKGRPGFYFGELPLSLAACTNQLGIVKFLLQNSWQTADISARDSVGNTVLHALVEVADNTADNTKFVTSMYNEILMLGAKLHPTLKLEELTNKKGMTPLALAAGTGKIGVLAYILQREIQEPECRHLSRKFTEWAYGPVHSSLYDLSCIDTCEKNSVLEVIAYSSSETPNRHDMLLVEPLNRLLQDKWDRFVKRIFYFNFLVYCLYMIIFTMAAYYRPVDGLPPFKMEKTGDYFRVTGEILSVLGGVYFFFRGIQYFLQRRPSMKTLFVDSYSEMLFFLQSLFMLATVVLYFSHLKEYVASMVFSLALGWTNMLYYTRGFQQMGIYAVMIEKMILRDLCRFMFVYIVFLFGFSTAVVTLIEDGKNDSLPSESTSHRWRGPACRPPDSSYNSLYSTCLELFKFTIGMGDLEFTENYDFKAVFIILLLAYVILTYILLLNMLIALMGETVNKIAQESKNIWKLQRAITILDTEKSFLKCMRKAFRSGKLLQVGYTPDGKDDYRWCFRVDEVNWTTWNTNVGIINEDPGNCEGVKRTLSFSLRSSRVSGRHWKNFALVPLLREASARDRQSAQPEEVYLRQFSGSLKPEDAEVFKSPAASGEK
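TRPV1-expressing cells were cultured overnight at 35.5C and loaded with Fluo-8 calcium dye for 40 to 90 min at room temperature. After a 10 s baseline, compound was added and calcium influx was read kinetically for 3 min (ex 480/em 520 nm).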
Menin MLL FP FL = qHTS Assay for Inhibitors Targeting the Menin-MLL Interaction in MLL Related Leukemias: Competition With Fluorescein Labeled MLL-derived Peptide. FP activity change, % at 61.4 µM. Fluorescence polarization, fluorescein-MLL peptide displacement from menin. 290,000 tested, under 10 active; inconclusive = falling polarisation curve, or a change in total fluorescence; inactive = total fluorescence flat and polarisation flat or rising; no compound was filed as active; the % refers to the polarisation; negative = inhibition;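 also: % of control where 0% means no effect; inhibitors lower the polarisation; unlabelled MLL peptide was the positive control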
ClpP mod = qHTS Assay for Activators of ClpP; purified B. subtilis ClpP, FRET peptide cleavage, 20 min; Potency, µM (highest dose often 57.5 µM), inactives show at the top dose activity change, negative = active; actives 1.9% (n = 340,000); active = well fitted falling curve with a large enough effect; inconclusive = small, poorly fitted or top-dose-only effect; inactive = no such curve, though single readings can be large or run the other way; also: potency is read from the fitted curve at half-maximal effect; the source files actives as falling curves though it sought activators and does not explain the sign; nearly all actives have a fitted effect of over 65% in size; many hits overshoot -100%
Target sequence (P80244 whole entry, looked up): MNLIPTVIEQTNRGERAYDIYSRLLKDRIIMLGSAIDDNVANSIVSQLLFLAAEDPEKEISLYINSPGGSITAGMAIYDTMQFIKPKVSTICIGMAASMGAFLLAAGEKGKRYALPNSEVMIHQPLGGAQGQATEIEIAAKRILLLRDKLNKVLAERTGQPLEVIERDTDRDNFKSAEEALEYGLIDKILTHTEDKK
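Purified B. subtilis ClpP, 10 microg/mL final in Tris/HCl pH8 with KCl, BSA, glycerol and Tween-20, cleaved an Abz/nitrotyrosine-quenched decapeptide. Fluorescence (ex 320, em 430) was read at 0 and 20 min at room temperature. Delta was normalized to 5.8 microM ADEP and DMSO/no-enzyme controls.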
Sfp PPTase inh = qHTS Assay for Inhibitors of Bacillus subtilis Sfp phosphopantetheinyl transferase (PPTase) | 4'-phosphopantetheinyl transferase ffp (Bacillus subtilis), Q9F4F7 | AID 1490, 2009 | actives 3.5% (n = 310,000) | Biochemical Sfp PPTase activity, qHTS | Potency, µM, for the others: max response, negative = inhibition, actives largely listed as inhibitors; active = well fitted inhibition curve with a large enough effect; inconclusive = small, poorly fitted or top-dose-only effect, or another doubt; inactive = no such curve, though single readings can be large or run the other way;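 also: the enzyme is Sfp with the accession as filed and its product quenches rhodamine fluorescence; potency is read from the fitted curve at half-maximal effect; 0% = enzyme reaction without inhibitor and -100% = no enzyme wells; top concentration of the series not given in the record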
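Step 1, compound plus 15 nM Sfp-PPTase, 15 min, room temperature. Step 2, add rhodamine-CoA (5 uM) and BHQ-2-YbbR (12.5 uM). Step 3, read 525/598 nm fluorescence at 0 and 30 min.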
gsp agonist = qHTS for Agonist of gsp, the Etiologic Mutation Responsible for Fibrous Dysplasia/McCune-Albright Syndrome: qHTS | gsp mutant cells, cAMP HTRF, 30 min; control for the full effect not named in the record | Potency, µM (doses to about 76.9 µM), for inactives: at the top dose activation (cAMP increase), most hits filed as activators | actives 0.13% (n = 340,000) | AID 624287, 2012; active = well fitted activation curve with a large enough effect; inconclusive = small, poorly fitted or top-dose-only effect, or another doubt; inactive = no such curve, though single readings can be large or run the other way; cell line not stated here;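 also: phosphodiesterase inhibitor Ro 20-1724 added with compounds to block cAMP breakdown; potency is read from the fitted curve at half-maximal effect; nearly all actives have a fitted effect of over 60% in size; about a fifth of the inactives were tested at one dose only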
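Cells stably selected in G418 were plated at 2000/well, grown 16-24 hr, then given compounds in DMSO with the PDE inhibitor […] (300 uM solution added) for 30 min at 37C; cAMP was read by HTRF.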
D2 PAM = Beta-Arrestin HTS for Positive Allosteric Modulators of the Human D2 Dopamine Receptor: Potentiators. potentiation, % (concentration not given with the values). actives 0.23% (n = 360,000). DiscoveRx D2 beta-arrestin cells, luminescence, 90 min; 100% = 57 uM dopamine signal. AID 624464, 2012; active = potentiation of 50% or more; inconclusive = 30% to 50%; inactive = 30% or less;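 also: compound concentration not given in the record; tested on top of an EC20 dose of dopamine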
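PathHunter beta-arrestin assay in DiscoveRx D2 cells. Compounds were added with an EC20 of dopamine (50 nM final) for 90 min at 37 deg C. Luminescence was read 1 h after detection reagent, with 57 uM dopamine as the EC100 control.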
Numbers without * were called inactive; ? = inconclusive; . = no result given; & = joins results of further samples; [ ] = remark or other dose.

Compound,TRPV1 PAM,gsp agonist,Menin MLL FP FL,ClpP mod,Sfp PPTase inh,D2 PAM,gsp antag
CC1c2cc3c(cc2CCN1CC(=O)Nc1ccccc1)OCCCO3 (stereo unspecified),-10,2%,-8.8,-3.4%,7%,-6,-13%
C[C@@H]1CN([C@@H](C)CO)C(=O)CCCn2nncc2CO[C@H]1CN(C)Cc1ccc2c(c1)OCCO2,.,-67%[inhibitor],.,1.0%,.,3,.
CC(C)C(NS(=O)(=O)c1cccc2nsnc12)C(=O)NC1CCCCC1C (stereo unspecified),-2,17%,.,-0.6%,14%,-12,3%
COc1ccc(CCNC(=O)CN(c2ccc(C)cc2)S(=O)(=O)c2c(C)noc2C)cc1OC,-4,1%,-1.2,2.1%,6%,-8,3%
O=[N+]([O-])c1cccc2c(S(=O)(=O)N3CCOCC3)cccc12,0,-25%,-5.8,.,-4%,1,-8%
CNC(=O)c1c(NC(=O)c2cccc(N3C(=O)CCC3=O)c2)sc2c1CCCC2,15,13%[15.4 µM],2.3,.,-12%,-1,-13%
CC1(OC(=O)C2CCCC2)C(=O)C=C2C=C(c3ccsc3)N(Cc3ccccc3)C=C2C1=O (stereo unspecified),?,-2%,?,-4.0%,-3%&-12%,7,9%
COc1ccc2cc1Oc1ccc(cc1)C[C@H]1c3cc(c(OC)cc3CCN1C)Oc1c(O)c(OC)cc3c1[C@H](C2)N(C)CC3,?,.,1.1,-0.3%,2%,-54,-1%
COC(=O)[C@@]1(Cc2ccccc2)[C@H]2C(=O)N(Cc3ccccc3)C(=O)[C@H]2[C@H]2CN=C(SCc3ccccc3)N21,.,.,.,-1.5%,.,-8,-12%
Clc1ccc(SCc2cn3ccccc3n2)cc1,-16,-7%,-6.7,.,10%,-9,-3%
CCCOc1ccc(S(=O)(=O)NCCCN2CCOCC2)c2ccccc12,-7,-58%[inhibitor],14,-1.2%,-4%,-15,-1%[15.4 µM]
CN(C)C(CNC(=O)c1ccc(S(=O)(=O)Nc2cccc(C(F)(F)F)c2)cc1)c1ccco1 (stereo unspecified),-6,10%,.,-5.1%,.,-18,-12%
CCN(CC)S(=O)(=O)c1ccc(O)c(NS(=O)(=O)c2ccccc2F)c1,0,-24%,2.8,-0.8%,50µM*,18,-9%
CCNC(=O)C1CC(=O)N(c2ccc(Br)cc2)C1 (stereo unspecified),-7,-4%,0.7,-1.3%,9%,15,-1%
CCOC(=O)C1CCCN(C(=O)c2ccc(C(=O)c3ccccc3)cc2)C1 (stereo unspecified),-6,-16%,.,1.8%,.,-9,-11%
CCCCCC1CC(=O)C=C(C)C1C(=O)OC (stereo unspecified),-16,4%,1.7,.,-8%,-4,12%
COc1ccc(CC(=O)NCc2n[nH]c(=S)n2-c2ccc(F)cc2)cc1,-7,-2%,1.4,-2.9%,9%,-18,5%
NC(=S)NN=Cc1c[nH]c2nccnc12,.,-8%,.,1.0%,.,-44,.
CCOC(=O)c1ccccc1NC(=O)CSc1ccccc1,?,-13%,0.7,-4.6%,?,0,-7%
S=c1nc[nH]c2c1[nH]c1ccc(Cl)cc12,0,?,-6.4,.,8%,2,10%
Cc1cc(SCC(=O)NCCC2=CCCCC2)nc2ccccc12,-12,9%,13,-3.6%,5%,-8,-14%
OC1CCN(Cc2cn(Cc3ccccc3)nc2-c2cc3ccccc3o2)CC1,12,-5%[15.4 µM],2.1,.,-10%,-5,19%
CC(C)[C@H](NC(=O)N1CC(=O)Nc2ccccc21)C(=O)N1CCC(C(=O)O)CC1,-6,9%,.,0.1%,6%,-12,18%
Cc1nnc(SCC(=O)NCc2cccs2)n1-c1ccccc1,-1,-23%,-2.0,0.2%,18%,4,-16%
COc1cc2c(cc1OC)[C@H](C)N(C(=O)NCc1ccccc1)CC2,-19,8%[15.4 µM],-4.3,-17%,20%,-5,11%
O=C(NCc1ccc2c(c1)OCO2)c1ccc(CS(=O)(=O)c2cccc(C(F)(F)F)c2)o1,1,-93%[inhibitor],1.2,-1.8%,-2%,-8,-5%
O=C(NCCCN1CCOCC1)C(c1ccccc1)c1ccccc1,13,-5%[15.4 µM],-6.8,-1.4%,6%,-7,8%
CC(C)(CSc1nncn1N)NS(=O)(=O)c1ccc(Cl)cc1,17,?,2.2,1.1%,23%,-20,1%
O=C(N/N=C/c1cccs1)c1cnccn1,-11,2%,2.1,-4.6%,-1%,8,9%
O=C(c1cc(-c2ccc(O)cc2)on1)N1CCc2ccccc2C1,.,21%,5.2,-3.2%,-25%,2,-1%
CCC(C(=O)Nc1c(C)cc(C)cc1C)N1CCCCCC1 (stereo unspecified),7,-15%,-5.9,0.0%,6%,-28,9%
C/C(CC(=O)Nc1cccnc1)=N\NC(=O)C(C)Oc1ccc(Cl)cc1Cl (stereo unspecified),2,2%[15.4 µM],3.8,0.5%,0%,-7,3%
Cc1ccc(C)c(SCc2nc3sc(C(=O)O)c(C)c3c(=O)[nH]2)c1,13,-15%[15.4 µM],0.1,.,-17%,3,-1%
COc1ccc(N2CCN(CC(=O)Nc3cc(C)on3)CC2)cc1,-5,0%,0.9,-7.2%,50µM*,-15,-4%
O=C(NNS(=O)(=O)c1ccc(F)cc1F)c1csc(-c2cccnc2)n1,22,21%,2.5,0.7%,-4%,-4,-17%
N#Cc1c(SCC(N)=O)nc2c(c1-c1ccncc1)CCCC2,-5,16%,-2.7,.,-41%,-4,-10%
COc1ccc(CN(C)CC(=O)Nc2sc3c(c2C#N)CCC3)cc1OC,-7,?,6.2,-0.2%,7%,1,?
CC(NC(=O)Cc1ccccc1)C1COc2ccccc2O1 (stereo unspecified),-8,6%[15.4 µM],2.0,?,13%,-28,-9%
Cc1cc(C(=O)CSc2nc3ccccc3c(=O)[nH]2)c(C)n1CC1CCCO1 (stereo unspecified),3,6%[15.4 µM],1.9,-16%,1%,0,35µM*
COC(=O)CCCC(=O)NC1CCCc2c1cnn2-c1ccc(F)cc1F (stereo unspecified),-9,-3%,0.8,1.1%,14%,0,10%
CCNc1nc(N2CCCC2)nc(N2CCCC2)n1,3,-17%,-0.9,.,8%,-12,5%
O=C1CC2(CCN(C(=O)c3ccc(Br)cc3)CC2)Oc2ccccc21,10,?,.,32µM*,.,-21,-29%
CCN1CCCC1CNC(=O)C(=O)Nc1cccc(OC)c1 (stereo unspecified),5,0%,5.5,0.3%,6%,16,10%
O=C1CCC(C(=O)N2CCC(CO)(Cc3ccc(Cl)cc3)CC2)=NN1,-17,-12%,12,.,9%,-1,5%
CSc1ccc(-c2sc(Nc3cccc4ccccc34)n[n+]2-c2ccccc2)cc1,16,9%,-9.0,3.2%,50µM*,-11,-11%
CS(=O)(=O)N(CCC#N)Cc1ccc(/C=C2\C(=O)Nc3ccccc32)o1,9,31%[15.4 µM],-2.0,.,0%,-3,?
CC1Cc2nc(SCC(=O)N3CCN(c4ccccc4)CC3)n(CCc3ccccc3)c(=O)c2S1 (stereo unspecified),8,-4%,7.1,-1.9%,45µM*,9,-25%
Cc1cc(NC(c2cccnc2)c2c(C)[nH]c3ccccc23)no1 (stereo unspecified),-1,1%,1.1,-3.2%,-13%,-2,-2%
O=C(c1ccccc1)N1CCC(CC2CC(c3ccc(Cl)cc3)=NO2)(C(=O)NCC2CCCCC2)CC1 (stereo unspecified),1,.,-2.9,-0.7%,12%,-18,-16%
CCOC(=O)C1=C(C)NC2=C(C(=O)CCC2)C1c1ccsc1 (stereo unspecified),16,.,-0.1,.,-13%,.,.
C=CC1=CCN(S(=O)(=O)C(C)(C)C)[C@H]1CCO,.,-9%,.,1.8%,.,3,.
Cc1nnc(N/N=C/c2ccc(-c3ccc(Br)cc3)o2)n1N,7,19%[15.4 µM],0.0,.,56µM*,26,.
COc1ccc(NC(=O)Cc2ccccc2)cn1,3,1%[15.4 µM],?,.,-1%,-6,7%
CC1CCC(NC(=O)c2ccc3c(c2)S(=O)(=O)c2ccccc2C3=O)CC1 (stereo unspecified),.,6%,.,-4.0%,.,-1,-10%
CN1C(=O)/C(=C/c2ccc(-c3ccccc3[N+](=O)[O-])o2)SC1=Nc1ccc(Cl)c(C(=O)O)c1,4,-37%[inhibitor],15,1.5%,14µM*,16,-6%
O=c1[nH][nH]c(C(F)(F)F)c1C=Nc1ccccc1,6,3%,6.1,-0.1%,24%,-4,7%
CCc1cccc(C)c1NC(=O)c1ccoc1C,-8,-47%[inhibitor],2.2,-1.0%,?,-2,4%
COc1ccc(S(=O)(=O)N2CCOCC2)cc1NC(=O)CN1C(=O)NC2(CCCCC2C)C1=O (stereo unspecified),-33,-9%[15.4 µM],.,-2.4%,.,-7,11%
COc1cccc(/C=C2\SC(=S)N(CCCC(=O)N3CCCCC3)C2=O)c1,3,-35%[inhibitor],12,-2.0%,-16%,-4,-21%
CC1(C)CC(NC(=O)c2ccccc2NS(=O)(=O)c2ccc(Br)cc2)CC(C)(C)N1,.,15%,.,-2.3%,.,0,4%
O=C(CNC(=O)c1cc(S(=O)(=O)N2CCOCC2)ccc1N1CCCC1)Nc1ccc(F)c(F)c1,.,-8%,.,-5.9%,.,-4,-3%

This is a random part of the collection; about 5.1% have a hit in one of these screens.
